Screening data: PubChem BioAssay, National Center for Advancing Translational Sciences (NCATS)
GLA inh pH 4.5 = inhibitors of human alpha-galactosidase A at pH 4.5; purified enzyme, 4-MU-alpha-Gal fluorescence, pH 4.5; activity change, negative = inhibition, % at 105 µM; AID 1467; P06280; 230,000 tested, under 10 active; inconclusive = small, poorly fitted or top-dose-only inhibition, or a rising curve; inactive = flat fitted curve, though single readings scatter; no compound was filed as active;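 also: 0% = full activity with enzyme and -100% = basal without enzyme; dose as in the result columns while the protocol names 77 µM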
Rango release inh = prevents RanGTP from dissociating the Rango-importin beta complex; Biochemical FRET Rango-importin beta, RanGTP-induced dissociation; Potency, µM (titrated, usually from 46.1 µM), for the others: at the highest dose activity change, negative = inhibition; 340,000 tested, 0.071% active; active means falling FRET ratio curve, often poorly fitted, with flat reads before Ran was added; inconclusive means other falling curves, or compound fluorescence or quenching; inactive means flat or rising ratio curve;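 also: potency is read from the fitted curve at half-maximal effect; % of control where 0% means no effect; nearly all actives have a fitted effect of over 45% in size; -100% = wells without RanGTP and RCC1; the record marks most hits as doubtful in a second field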
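Compounds preincubate 5 min with complex of recombinant Rango and importin beta in PBS with 1 mM DTT. Ran (0.6 uM) loaded with 2 mM GTP plus 0.2 uM RCC1 starts dissociation; FRET is recorded 45 min later.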
Rango complex inh = prevents formation of the Rango-importin beta complex; Q14974; Rango CFP/YFP FRET sensor + importin beta, 45 min; Potency, µM (highest dose often 92.2 µM), for inactives: top-dose inhibition of complex formation; 340,000 tested, 0.031% active; active = rising FRET ratio curve, often small or poorly fitted; inconclusive = mostly compound fluorescence or quenching in the first reads; inactive = flat curves in all reads;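 also: potency is read from the fitted curve at half-maximal effect; 0% = DMSO wells and 100% = buffer wells lacking importin beta; nearly all actives have a fitted effect of over 15% in size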
Target sequence (Q14974 whole entry, looked up): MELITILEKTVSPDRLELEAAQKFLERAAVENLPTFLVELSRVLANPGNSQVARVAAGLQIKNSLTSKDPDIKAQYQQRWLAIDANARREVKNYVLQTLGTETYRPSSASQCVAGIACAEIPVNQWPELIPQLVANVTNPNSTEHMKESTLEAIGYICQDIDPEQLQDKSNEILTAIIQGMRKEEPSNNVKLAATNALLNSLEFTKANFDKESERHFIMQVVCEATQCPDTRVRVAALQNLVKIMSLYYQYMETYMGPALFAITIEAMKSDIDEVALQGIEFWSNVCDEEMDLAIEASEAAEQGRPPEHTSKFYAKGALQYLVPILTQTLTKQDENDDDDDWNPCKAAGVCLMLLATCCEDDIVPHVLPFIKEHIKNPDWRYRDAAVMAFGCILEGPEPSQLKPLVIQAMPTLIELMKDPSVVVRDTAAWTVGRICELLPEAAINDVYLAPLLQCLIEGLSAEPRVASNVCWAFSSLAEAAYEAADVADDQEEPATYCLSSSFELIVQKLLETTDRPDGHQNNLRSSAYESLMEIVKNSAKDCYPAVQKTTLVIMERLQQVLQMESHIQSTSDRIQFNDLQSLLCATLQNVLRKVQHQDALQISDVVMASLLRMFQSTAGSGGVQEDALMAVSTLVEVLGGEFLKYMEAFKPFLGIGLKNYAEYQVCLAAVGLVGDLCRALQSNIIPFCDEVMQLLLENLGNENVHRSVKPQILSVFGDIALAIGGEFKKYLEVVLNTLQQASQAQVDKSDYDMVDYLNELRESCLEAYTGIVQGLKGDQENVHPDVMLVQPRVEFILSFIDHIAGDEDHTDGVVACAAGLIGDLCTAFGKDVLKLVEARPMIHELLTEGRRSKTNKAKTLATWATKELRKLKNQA
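FRET biosensor Rango (snurportin 1 IBB between N-terminal EYFP and C-terminal Cerulean), 50 nM in PBS/1 mM DTT/0.02% Tween-20/0.1% BSA, preincubated 5 min RT with compound; 0.125 microM importin beta added, 45 min RT, CFP/YFP FRET ratio read.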
miR-21 FLuc = miR-21 reporter, rising signal; HeLa miR-21 FLuc reporter, luciferase, 48 h; Potency, µM (top dose mostly 38.3 µM), inactives show at the highest dose reporter change, positive = more light; 340,000 tested, under 10 active; active = well fitted rising curve with a large enough effect; inconclusive = small, poorly fitted or top-dose-only effect; inactive = no such curve, though single readings can be large or run the other way;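 also: % of control where 0% means no effect; miR-21 action dims this reporter so a rising signal means less miR-21 action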
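Using DMEM plus 10% FBS, HeLa miR-21-FLuc cells are incubated with test compounds (final up to about 40uM) for 48 hours; firefly luciferase signal is then imaged following reagent-mediated lysis.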
Active calls of the source: *; u = inconclusive; x = no result given; & = joins results of further samples. These rows are one share of the data (hit frequency here may not be typical).

SMILES	GLA inh pH 4.5	Rango release inh	Rango complex inh	miR-21 FLuc
O=C(NC1CCCC1)c1cc2cc(Br)ccc2o1	x	-1.3%	4.8%	-57.3%
O=S(=O)(NCc1ccccc1)NCc1ccc(Cl)cc1Cl	x	10.5%	-0.3%	-8.4%
OC(Cn1cncn1)c1ccc(Cl)cc1Cl (configuration not stated)	-2.4	-8.1%	-1.0%	-3.7%
CCOc1ccc(-c2nc(-c3cccnc3)no2)cc1OCC	-1.7	0.0%	0.3%	-18.6%
CC(C(=O)O)N1C(=O)CSc2ncccc21 (configuration not stated)	-3.2	3.9%	6.1%	-0.6%
Clc1ccc2c(c1)C(c1cccs1)=NNC(c1cccnc1)=N2	-26.6	-9.3%	2.7%	-6.3%
COc1ccc(/C=C2\OC(=O)c3c(OC)cccc32)cc1OC	12.4	u	u	-81.3%
Cc1ccc(-c2noc(C3CCCN(S(=O)(=O)c4ccc(S(=O)(=O)N(C)C)cc4)C3)n2)o1 (configuration not stated)	3.9	11.6%	2.9%	-4.4%
CC(C)(C)[C@H]1COC(=O)CCCC/C=C\C[C@H](CC(=O)NCCO)C(=O)N1	x	1.9%	4.2%	x
COc1cc(NC(=O)C2CC(=O)NC3=C2C(=O)CC(C)(C)C3)c(OC)cc1Cl (configuration not stated)	-0.7	u	u	0.1%
Cc1nc2ccccc2n1-c1ccccc1	2.3	-0.7%	-0.4%	-7.6%
Cc1nonc1C1CCCN1Cc1nc(-c2ccccc2Cl)oc1C (configuration not stated)	9.8	-12.3%	-3.2%	-0.9%
Cc1c(C(=O)NNc2cc(=O)n(C)c(=O)n2C)cccc1[N+](=O)[O-]	-3.4	-24.5%	u	-1.5%
COc1ccc2nc(NC(=O)CSc3ccccc3)sc2c1	-5.3	-8.9%	-0.7%	-49.2%
COc1ccc(S(=O)(=O)N(C)C[C@@H]2Oc3ccc(NS(C)(=O)=O)cc3C(=O)N([C@@H](C)CO)C[C@H]2C)cc1	x	17.2%	0.0%	x
CN(CCOc1ccc(Cl)c(Cl)c1)Cc1ccccc1	x	-12.7%	-0.9%	3.2%
O=C(CN1C(=O)CCC1=O)Nc1ccc(S(=O)(=O)N2CCOCC2)cc1	x	-10.2%	-0.9%	-3.6%
O=C(Nc1nnc(SCC(=O)N2CCCCC2)s1)C1CCCCC1	3.2	12.5%	4.8%	-13.0%
O=C1CCN(CCc2ccccc2)CCN1[C@H](CO)c1ccccc1	x	-9.5%	-1.5%	-1.3%
COc1ccccc1NS(=O)(=O)c1ccc(C)c(C(N)=O)c1	3.8	14.0%	-1.2%	1.0%
COC(=O)Cc1ccc(NC(=S)Nc2ccc(N3CCOCC3)cc2)cc1	0.2	-0.5%	-0.4%	-0.7%
O=C(NC1CCCC1)c1ccc([N+](=O)[O-])s1	-10.6	-18.2%	7.5%	8.1%
Cn1nc(C(F)(F)F)c(C(=O)Nc2ccc(F)cc2F)c1Cl	-26.8	-10.2%	-4.0%	-3.7%
CCOCC(=O)N1CCN(c2ccc([N+](=O)[O-])cc2)CC1	0.4	-17.8%	u	-1.7%
O=c1ccc(-c2ccccc2)n[nH]1	2.5	-0.6%	-0.1%	-8.3%
COCCn1nnnc1CN(CCCN1CCOCC1)Cc1cc2c(C)ccc(C)c2[nH]c1=O	3.0	0.6%	-2.7%	-5.3%
COc1cc(OC)cc(C(=O)NCC2CCCN(C(=O)c3csc(C)n3)C2)c1 (configuration not stated)	x	13.1%	-0.7%	-0.5%
CCNC(=S)NN=C1c2ccccc2-c2ccccc21	-6.2	16.6%	-1.1%	5.4%
CC(=O)Nc1ccc(S(=O)(=O)N2CCN(C(=O)CCC3CCCC3)CC2)cc1	-9.2	14.8%	0.5%	15.0%
O=C1C2C3C=CC(CC3)C2C(=O)N1/N=C/c1ccc(O)cc1 (configuration not stated)	3.2	2.4%	-1.4%	-31.4%
COc1ccc(S(=O)(=O)N(CC(=O)Nc2cccnc2)c2ccccc2OC)cc1	4.1	18.3%	-3.8%	11.6%
O=C(/C=C/c1ccccc1[N+](=O)[O-])NCc1ccc(Cl)cc1	1.2	0.2%	-2.8%	0.1%
O=C(Nc1ccc(NC(=O)c2ccc([N+](=O)[O-])o2)cc1Cl)c1ccco1	x	3.2%	1.9%	1.2%
CCCNS(=O)(=O)c1ccc(CCC(=O)NCC2CCCO2)cc1 (configuration not stated)	3.0	0.1%	-1.1%	-1.2%
CC1Cc2ccccc2N1C(=O)CCN1C(=O)C2C3C=CC(C3)C2C1=O (configuration not stated)	-1.6	1.2%	-8.7%	-6.9%
COc1ccc(CSc2nc(CSC)cc(N3CCOCC3)n2)cc1	1.1	-2.7%	-4.1%	-21.6%
Cc1ccc(-n2c(C)cc(C(=O)OCC(=O)N(CC(C)C)C3CCS(=O)(=O)C3)c2C)cc1 (configuration not stated)	-5.4	3.2%	-0.6%	-12.2%
CCOc1ccc(-n2nnc3c(=O)n(C/C=C/c4ccccc4)cnc32)cc1	0.7	-2.9%	0.0%	0.0%
CC(C)n1c(Nc2ccccc2)nc2ccccc21	1.1	-5.6%	u	-6.2%
Cc1cccc(C(=O)N2CCC(c3nc(-c4ccc(S(=O)(=O)N5CCOCC5)cc4)no3)CC2)c1	9.9	0.2%	0.8%	-2.1%

Reprinted from the part before: 2 compounds; new compounds follow.
SMILES	GLA inh pH 4.5	Rango release inh	Rango complex inh	miR-21 FLuc
CC(C)n1c(Nc2ccccc2)nc2ccccc21	1.1	-5.6%	u	-6.2%
Cc1cccc(C(=O)N2CCC(c3nc(-c4ccc(S(=O)(=O)N5CCOCC5)cc4)no3)CC2)c1	9.9	0.2%	0.8%	-2.1%
CCOC(=O)c1nnn(-c2nonc2N)c1-c1ccccc1Cl	-0.3	13.6%	5.7%	-3.6%
CSc1nc(N(CCO)CCO)c2sc3nc(-c4ccco4)c4c(c3c2n1)CCC4	5.3	-20.7%	u	-10.1%
COC(=O)COc1ccc(S(=O)(=O)N2CCN(c3ccccc3F)CC2)cc1	-11.2	-1.3%	-1.1%	1.1%
COC(=O)c1ccc(CN2CCN(CCc3ccccc3)C(CCO)C2)cc1 (configuration not stated)	5.0	-5.2%	2.0%	-1.8%
CCOc1ccc(Cn2c(SCCCCC#N)nc3c2c(=O)n(C)c(=O)n3C)cc1OCC	6.2	19.8%	1.3%	-10.2%
CCOC(=O)c1cnc(-n2nc(C)cc2C)nc1-n1nc(C)cc1C	0.9	0.6%	-2.5%	-13.3%
CN1CC2([N+](=O)[O-])CC=C(Oc3ccccc3)C([N+](=O)[O-])(C1)C2 (configuration not stated)	16.5	20.3%	-3.4%	-5.0%
Cc1cc(Cl)ccc1NC(=O)C(=O)N/N=C/c1ccc2c(c1)OCO2	x	0.0%	1.3%	-1.1%
CCOCCCn1c(SCC(=O)Nc2cccc(OC)c2)nc2ccccc2c1=O	x	3.6%	3.1%	14.5%&21.5%
Cc1ccc(OCC(=O)NN2C(=O)c3ccccc3C2=O)cc1	-8.8	-13.8%	2.0%	-0.8%

Arranged by molar mass (rising): some entries from above.
SMILES	GLA inh pH 4.5	Rango release inh	Rango complex inh	miR-21 FLuc
Cc1ccc(OCC(=O)NN2C(=O)c3ccccc3C2=O)cc1	-8.8	-13.8%	2.0%	-0.8%
COC(=O)c1ccc(CN2CCN(CCc3ccccc3)C(CCO)C2)cc1 (configuration not stated)	5.0	-5.2%	2.0%	-1.8%
CCOc1ccc(Cn2c(SCCCCC#N)nc3c2c(=O)n(C)c(=O)n3C)cc1OCC	6.2	19.8%	1.3%	-10.2%

(list continues)
SMILES	GLA inh pH 4.5	Rango release inh	Rango complex inh	miR-21 FLuc
COc1ccc2[nH]c(=O)c(CN(Cc3ccccc3OC)Cc3nnnn3CC3CCCO3)cc2c1 (configuration not stated)	-1.5	17.5%	5.3%	-13.3%
O=C(CSc1nnc(CNC(=O)c2ccc(F)cc2)o1)Nc1ccc2c(c1)OCO2	x	-8.5%	1.2%	-0.5%
N#CCCN(C(=O)COC(=O)C1CCN(c2ccc(C(F)(F)F)cn2)CC1)c1ccc(F)cc1	x	-0.2%	0.3%	x
COc1ccc(C(CC(=O)O)NC(=O)COc2ccccc2OC)cc1OC (configuration not stated)	5.7	2.3%	1.5%	0.2%
Cc1ccccc1NC(=O)CSc1nc2c(c(-c3ccco3)c1C#N)CCCC2	0.6	-0.8%	-0.9%	-4.0%
O=C1C=C(c2ccccc2)OC(=O)C1C(=O)c1ccccc1 (configuration not stated)	-0.9&-0.1	13.8%	-0.2%	-21.9%&-10.8%
COc1ccc(-c2nc(CS(=O)CC(=O)NC3CCCC3)c(C)o2)cc1OC (configuration not stated)	x	20.8%	0.2%	-7.5%
CN(C)c1ccc(/C=N/NC(=O)C(O)c2ccc(Br)cc2)cc1 (configuration not stated)	2.5	-9.2%	-0.7%	-0.3%
COc1ccc2ccccc2c1/C=N/NC(=O)c1ccc(C)nc1	x	17.6%	-1.3%	-0.7%
CC(=O)Nc1ccc(SCc2ncc(-c3ccccc3)o2)cc1	x	-6.4%	-2.0%	-55.4%
Cc1ccnc2nc(NC(=O)c3ccco3)nn12	x	12.0%	3.3%	-41.7%
CC(C)n1ncc2c(C(=O)NCc3cccnc3)cc(C3CC3)nc21	x	-17.0%	1.0%	x
CCc1cc2c(SCc3ccc(C(=O)OC)o3)ncnc2s1	x	-12.3%	4.4%	-0.5%
O=c1cc(NS(=O)(=O)c2ccccc2)nc(SCc2c(Cl)cccc2Cl)[nH]1	5.3	-16.7%	1.5%	-3.7%
COCCn1c(SCC(=O)c2ccc(CNC(C)=O)o2)nc2ccccc2c1=O	4.8	1.6%	0.4%	-4.6%
O=S1(=O)C=C(Oc2ccc3ccccc3c2)c2ccccc21	0.9	-4.8%	-3.9%	5.7%
C[C@H](NC(=O)[C@@H]1Cc2ccccc2CN1)C(=O)NCC1CCCO1 (some centres not stated)	x	-12.9%	-0.6%	-1.1%
O=C(c1ccc(-c2cccc(Cl)c2Cl)o1)N1CCOCC1	2.2	15.9%	1.2%	-83.7%
Cc1ccc2c(c1)NC(=O)[C@@]1(C)[C@@H](c3ccccc3)[C@H]3COc4ccc(Cl)cc4[C@@H]3N1C2=O	x	-3.1%	u	x
CCOc1cccc(C2/C(=C(/O)c3ccc4c(c3)CC(C)O4)C(=O)C(=O)N2CCCn2ccnc2)c1 (configuration not stated)	x	-1.8%	0.0%	0.2%
C/C=C(\C)C(=O)NCCN1C2=NC[C@H](Cc3ccccc3)N2C[C@H]1Cc1ccc(O)cc1	-1.0	-0.4%	-5.4%	-4.2%
CC(=O)C(Cc1ccc(Cl)nc1)(Cc1ccc(Cl)nc1)C(C)=O	11.9	-9.1%	-7.4%	1.7%
O=C(COc1ccc(-c2ccccc2)cc1)N1CCN(C(=O)c2cccs2)CC1	3.7	0.1%	3.2%	-29.5%
CCOc1ccccc1NC(=O)C12CC3CC(C1)CC(c1ccc(C)cc1)(C3)C2	1.7	-4.4%	-6.6%	0.3%
Cc1ccc(N2CC(C(=O)Nc3ccc(S(=O)(=O)N4CCCC4)cc3)CC2=O)cc1 (configuration not stated)	-18.6	3.1%	2.7%	-0.8%
COc1cc2c(C(=O)NCc3ccc4c(c3)OCO4)cn(CC(C)C)c(=O)c2cc1OC	6.7	-23.3%	0.5%	-5.1%
Cc1ccc(NC(=O)NC2CC(=O)N(c3ccc4c(c3)OCCO4)C2)cc1 (configuration not stated)	x	-9.6%	-1.0%	x
CCOC(=O)N1CCN(Cc2nc(N)nc(Nc3ccc(Oc4ccccc4)cc3)n2)CC1	-5.8	-12.9%	0.6%	21.2%
CCOc1cccc(-c2c(C(=O)N/N=C/c3sccc3C)nnn2-c2nonc2N)c1	x	14.0%	-2.0%	2.8%
O=C(Nc1ccc(Cl)cn1)C1CC1	-4.3	2.4%	-0.6%	0.8%
Oc1ccccc1/C=N/Nc1cc(N2CCCC2)nc(N2CCCC2)n1	6.1	-10.6%	-1.0%	-8.0%
Cc1ccc(CC(=O)OCC(=O)c2ccc[nH]2)cc1C	x	-11.8%	0.4%	x
Cc1cccc(N2C(=O)N3[C@H]4c5ccccc5OC[C@@H]4[C@@H](c4ccccc4)[C@@]3(C)C2=O)c1	x	0.8%	0.4%	x
CCNCc1cc([N+](=O)[O-])ccc1OCC	-20.7	18.6%	1.5%	-0.3%
O=C(c1ccccc1)N1CCN(CC2CC=CCC2)CC1 (configuration not stated)	0.9	8.6%	-2.0%	-7.0%
CCOC(=O)c1c(/N=C/c2ccc(C)cc2O)sc2c1CCC2	-4.0	0.9%	4.1%	-5.9%
